Lassa entry inh = Lassa virus entry inhibition; Lassa virus pseudotype entry inhibition, cell reporter; control for the full effect not named in the record; Potency, µM (highest dose often 37.9 µM), for inactives: at the highest dose activity change, negative = inhibition, actives largely listed as inhibitors; 300,000 compounds, 1.2% hits; active means well fitted inhibition curve with a large enough effect; inconclusive means small, poorly fitted or top-dose-only effect, or effect the other way; inactive means flat fitted curve, though single readings scatter; tested in HEK293 cells; also: % is scaled to controls: 0 for no effect and ±100 for the full control effect; nearly all actives have a fitted effect of over 50% in size; luciferase read-out
Cruzain noTriton = cruzain (T. cruzi) inhibition without detergent; P25779; purified cruzain, Z-FR-AMC fluorescence, no detergent; Potency, µM, inactives show max response, negative = inhibition, most hits filed as inhibitors; 200,000 compounds, 2.3% hits; AID 1476;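 also: plate controls were enzyme without inhibitor for no effect and buffer without enzyme for full effect; nearly all actives have a fitted effect of over 40% in size; top concentration of the series not given in the record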
Target sequence (P25779 123-467 limits assumed): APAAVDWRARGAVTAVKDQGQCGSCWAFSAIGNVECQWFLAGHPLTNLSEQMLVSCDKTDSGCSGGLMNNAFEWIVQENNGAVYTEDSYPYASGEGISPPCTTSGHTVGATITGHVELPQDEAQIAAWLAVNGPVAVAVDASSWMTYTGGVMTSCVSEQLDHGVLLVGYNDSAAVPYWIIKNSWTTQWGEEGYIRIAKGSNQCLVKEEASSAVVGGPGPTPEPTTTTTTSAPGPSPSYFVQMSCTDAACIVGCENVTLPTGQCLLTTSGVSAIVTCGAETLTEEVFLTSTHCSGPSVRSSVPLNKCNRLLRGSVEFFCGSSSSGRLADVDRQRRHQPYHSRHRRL
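Detergent-free condition (0.00005% Triton X-100) in acetate buffer pH 5.5 with DTT. 1.5 nM enzyme and compound were pre-mixed 15 min, then 2 uM Z-FR-AMC substrate added; reaction progress from fluorescence change between first and third reads (60 s).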
NS1 function inh = inhibitors of influenza NS1 protein function. S. cerevisiae slowed by influenza A NS1, growth recovery by OD600. Potency, µM (titrated, usually from 46.1 µM), for inactives: at the highest dose activity, positive = more growth. 270,000 compounds, 0.4% hits. AID 2326; active means well fitted rising curve with a large enough effect; inconclusive means small, poorly fitted or top-dose-only effect; inactive means no such curve, though single readings can be large or run the other way; also: nearly all actives have a fitted effect of over 50% in size
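In this qHTS, NS1 from influenza A is expressed in budding yeast, where it slows growth. Cells are switched from glucose to 2% galactose medium (pH 6.0, -URA), treated with compound, and growth recovery is read at OD600.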
Cruzain Triton = cruzain (T. cruzi) inhibition with detergent | AID 1478 | purified cruzain, Z-FR-AMC fluorescence, 0.01% Triton | Potency, µM, inactives show max response, negative = inhibition, actives largely listed as inhibitors | P25779 | 200,000 compounds, 0.43% hits;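 also: plate controls were neutral wells for no effect and buffer without enzyme for full effect; nearly all actives have a fitted effect of over 40% in size; top concentration of the series not given in the record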
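Z-FR-AMC hydrolysis (2 uM substrate) by cruzain (1.5 nM) monitored kinetically at ex 360/em 450 nm after 15 min room-temperature compound exposure; 0.01% Triton X-100, pH 5.5, 5 mM DTT.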
SARS PLP yeast = SARS-CoV PLP inhibition in yeast; S. cerevisiae expressing SARS-CoV PLpro, growth rescue; control for the full effect not named in the record; Potency, µM (top dose mostly 32.9 µM), for the others: at the highest dose activity, positive = growth rescue; 330,000 compounds, 0.19% hits; AID 485353; active means well fitted rising curve with a large enough effect; inconclusive means small, poorly fitted or top-dose-only effect; inactive means no such curve, though single readings can be large or run the other way; also: 0% is about no effect; nearly all actives have a fitted effect of over 55% in size; growth read by luminescence after 48 h
Marburg entry inh = blocks Marburg virus binding to or entry into cells; Potency, µM (top dose mostly 37.8 µM), without a hit: at the highest dose activity change, negative = inhibition, usual class: inhibitors; Marburg virus pseudotyped entry inhibition, cell reporter; control for the full effect not named in the record; about a third of the inactives were read at about 46 µM; 300,000 compounds, 1.8% hits; active = well fitted inhibition curve with a large enough effect; inconclusive = small, poorly fitted or top-dose-only effect, or effect the other way; inactive = flat fitted curve, though single readings scatter; tested in HEK293 cells; about a fifth of its hits are not listed in these tables; also: % is scaled to controls: 0 for no effect and ±100 for the full control effect; luciferase read-out
2A StopGo = FMDV 2A StopGo reporter, luciferase signal; human cells with a luciferase reporter of 2A StopGo recoding; control for the full effect not named in the record; Potency, µM (doses to about 57.9 µM), inactives show at the top dose signal change, negative = less light; 410,000 compounds, 1.2% hits; AID 1159524; active = well fitted falling curve with a large enough effect; inconclusive = small, poorly fitted or top-dose-only effect; inactive = no such curve, though single readings can be large or run the other way; tested in HEK293T cells; also: % is scaled to controls: 0 for no effect and ±100 for the full control effect; nearly all actives have a fitted effect of over 45% in size; luciferase light after 4 h
RE007 growth inh = less growth of the S. pombe RE007 Vpr strain; 360,000 compounds, 0.21% hits; S. pombe RE007 Vpr strain, BacTiter-Glo ATP luminescence, 24 h; control for the full effect not named in the record; Potency, µM (titrated, usually from 92.2 µM), without a hit: at the highest dose activity change, negative = less growth; active = well fitted falling curve with a large enough effect; inconclusive = small, poorly fitted or top-dose-only effect; inactive = no such curve, though single readings can be large or run the other way;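 also: % is scaled to controls: 0 for no effect and ±100 for the full control effect; nearly all actives have a fitted effect of over 50% in size; the assay follows cell death caused by Vpr and the record does not say whether a fall means rescue or toxicity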
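Fission yeast strain RE007, carrying one chromosomally integrated HIV-1 vpr copy, was seeded at OD 0.01 in PMG+AL medium with 23 nL pinned compound. After 24 h at 30 °C and 99% humidity, viability was read by BacTiter-Glo luminescence.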
Numbers without * were called inactive; ? = inconclusive; · = not tested or not shown; & = joins results of further samples; [ ] = remark or other dose. Unless noted, calls follow the shape of the dose curve; as a rule, active = well fitted curve in the direction sought with a large enough effect; inconclusive = small, poorly fitted or top-dose-only effect, or another doubt; inactive = no such curve, though single readings can be large; an effect the other way counts as inactive or inconclusive. Potency is read from the fitted curve at half-maximal effect.

Every second line gives: Lassa entry inh	Cruzain noTriton	NS1 function inh	Cruzain Triton	SARS PLP yeast	Marburg entry inh	2A StopGo	RE007 growth inh
- COc1cc(NC(=S)NN2CCOCC2)cc(OC)c1
    14%	·	·	·	·	-6%	-11%	-6%
- Cc1cccc(NS(=O)(=O)c2ccc(C)c(C(=O)N3CCN(C(=O)c4ccco4)CC3)c2)c1
    ?	·	·	·	·	-4%	24%	4%
- CC(C)(C)NC(=O)CSc1nsc(SCC(=O)NC(C)(C)C)c1C#N
    ?	-4%	10%	1.4%	-1%	-8%&-8%&-8%	-20%	19%
- O=C(CSc1nccn1Cc1ccco1)Nc1ccccc1C(F)(F)F
    1%	·	3%	·	?	?	5%	1%
- COCC(CN1CCN(C2=NS(=O)(=O)c3ccccc32)CC1)OC(=O)c1ccccc1 (stereo not given)
    6%	·	0%	·	1%	-19%[46.1 µM]	10%	9%
- Cc1ccc(Cl)cc1N=C(N)N=C(N)N
    0%	·	2%	·	1%	-33%	-26%	-5%
- Cc1ccc(C(=O)/C=C/c2ccccc2)o1
    5%	-3%	-110%	-7.2%	-27%	-1%	?	?
- Cn1nnnc1SCc1nnc(-c2ccc(F)cc2)o1
    14%	6%	-3%	-0.9%	1%	?	26%	-12%
- CCn1c2ccccc2c2cc(CN3CCN(Cc4ccccc4C)CC3)ccc21
    -7%[46.1 µM]	5%	·	3.4%	·	·	-27%	·
- O=C(Nc1cc(C(F)(F)F)ccc1N1CCOCC1)C1=COCCO1
    -14%	·	·	·	4%	3%	-13%	15%
- O=C1C2CSCN2C(=O)CN1CCCN1CCN(C(c2ccccc2)c2ccccc2)CC1 (stereo not given)
    ?	6%	-6%	-1.3%	18%	?	1%	-3%
- O=C(NCC1CCCO1)c1onc(CSc2ccc(Cl)cc2)c1C(=O)O (stereo not given)
    ·	-9%	17%	1.3%	0%	·	0%	-3%
- C=CCSc1nsc(N)n1
    -4%	5%	-7%	2.9%	-10%	-4%	-17%	-8%
- CCC(C)c1ccc(OCC(=O)Nc2cccc(C(=O)Nc3ccc(C(=O)O)cc3)c2)cc1 (stereo not given)
    ·	·	-16%	·	-1%	·	7%	9%
- O=C(NCCCOC(=O)c1ccccc1)c1ccccc1
    7%[46.1 µM]	·	·	·	·	-3%[46.1 µM]	3%	12%
- c1ccc(COc2cccc(CNCc3cccnc3)c2)cc1
    0%	·	4%	·	0%	-17%[46.1 µM]	-24%	-11%
- COc1cccc(NC(=O)Cn2nc(C)c3c(C)n(-c4ccccc4)nc3c2=O)c1
    24%[46.1 µM]	-3%	·	0.3%	·	·	-7%	·
- COCCn1c(C(F)(F)F)ccc(NC(=O)c2ccccc2)c1=O
    ?	·	-5%	·	-2%	?	29%	-14%
- CNc1nc(-c2ccc(Cl)cc2)cs1
    ?	0%	-47%	-6.7%	-4%	?	13%	-7%
- CC1(C)Cc2c(c(N3CCOCC3)nc3sc(C(=O)N4CCCCC4)c(N)c23)CO1
    -5%	2%	?	-7.9%	21%	8%	3%	-2%

Next compounds follow.
Every second line gives: Lassa entry inh	Cruzain noTriton	NS1 function inh	Cruzain Triton	SARS PLP yeast	Marburg entry inh	2A StopGo	RE007 growth inh
- CC(C(=O)N1CCOCC1)c1ccc([N+](=O)[O-])cc1 (stereo not given)
    8%	2%	18%	-0.9%	-6%	-15%	-19%	-7%
- Cc1ccccc1CS(=O)(=O)Cc1ccc(C(=O)NCc2cccnc2)o1
    3%	-12%	4%	2.4%	-3%	0%	-26%	12%
- COC(=O)c1[nH]c2c(c1C)C(=O)CC(c1cc(OC)ccc1OC)C2 (stereo not given)
    ·	-5%	-19%	3.2%	6%	·	-17%	10%
- Clc1cccc(CNCC2CCCO2)c1Cl (stereo not given)
    ·	·	-2%	·	?	·	5%	3%
- COc1ccc(-c2cc(C(F)(F)F)nc(SCC(=O)NCc3ccco3)n2)cc1OC
    ?	?	2%	-24%	-8%	-17%&-17%	0%	15%
- Cc1ccc(C(=O)NCc2ccc3c(c2)OCO3)cc1S(=O)(=O)N1CCOCC1
    21%	9%	-9%	-2.6%	-3%	0%	·	11%
- COc1cccc(NC(=O)Nc2ccc(C)c(Cl)c2)c1
    23%	·	0%	·	-1%	1%[46.1 µM]	39%[activator]	7%
- CN(C)/C=C/C(=O)c1c(F)cccc1F
    ·	·	-3%	·	3%	·	5%	-5%
- Clc1ccc(OCCCc2nc(-c3cccnc3)no2)c(Cl)c1
    11%	21%	-88%	-8.2%	-27%	-4%	-16%	5%
- CC1CCN(S(=O)(=O)c2ccc(C(=O)Nc3sccc3C(N)=O)cc2)CC1
    ·	18%	11%	-4.8%	2%	·	?	-1%
- CCOc1ccc(C(=O)c2cn(CC(=O)Nc3ccc4c(c3)OCCO4)c3ccc(OC)cc3c2=O)cc1
    -16%[46.1 µM]	2%	·	-2.8%	·	-20%[46.1 µM]	-7%	·
- CC(Nc1nc(C(F)(F)F)nc2ccccc12)c1cccs1 (stereo not given)
    -11%	·	-102%	·	-6%	?	?	0%
- CC(C)C(=O)NC(=S)Nc1ccc(S(=O)(=O)N2CCCC2)cc1
    -2%	0%	-10%	-3.3%	-6%	?	-21%	-17%
- CCOC(=O)CN1C(=O)/C(=C2\SC(=S)N(NC(=O)c3cccnc3)C2=O)c2ccccc21
    ·	·	2%	·	-10%	·	-21%	-16%
- COc1cc(N(C)C)ccc1C=c1c2ccccc2n2c1cc(-c1ccccc1)[n+]2C
    ?	·	·	·	·	?	?	?
- COc1ccc(-n2c(C)nc3cc(C(=O)NCCN4CCOCC4)ccc32)cc1
    -5%	3%	5%	1.0%	0%	8%	9%	10%
- CN1CC(=O)N(CC(=O)Nc2ccc(OC(F)(F)F)cc2)c2ccccc2C1=O
    9%[46.1 µM]	19%	·	-1.3%	·	·	-12%	·
- Cc1csc(SCC(=O)Nc2ccc(F)cc2Cl)n1
    ?	·	·	·	-2%	-31%	15%	30%
- N#Cc1ccc(CN2CCN(C(=O)CNC(=O)Cc3cccc4ccccc34)CC2)cc1
    ?	·	·	·	-7%	?	?	-14%
- COc1ccc(S(=O)(=O)N(C)C)cc1NC(C)C(=O)Nc1cccc(C#N)c1 (stereo not given)
    23%	·	·	·	0%	1%[46.1 µM]	-4%	-24%

Gathered by group: the compounds so far with a thiophene ring, fused or not.
Every second line gives: Lassa entry inh	Cruzain noTriton	NS1 function inh	Cruzain Triton	SARS PLP yeast	Marburg entry inh	2A StopGo	RE007 growth inh
- CC1(C)Cc2c(c(N3CCOCC3)nc3sc(C(=O)N4CCCCC4)c(N)c23)CO1
    -5%	2%	?	-7.9%	21%	8%	3%	-2%
- CC1CCN(S(=O)(=O)c2ccc(C(=O)Nc3sccc3C(N)=O)cc2)CC1
    ·	18%	11%	-4.8%	2%	·	?	-1%
- CC(Nc1nc(C(F)(F)F)nc2ccccc12)c1cccs1 (stereo not given)
    -11%	·	-102%	·	-6%	?	?	0%

Continuation.
Every second line gives: Lassa entry inh	Cruzain noTriton	NS1 function inh	Cruzain Triton	SARS PLP yeast	Marburg entry inh	2A StopGo	RE007 growth inh
- COc1ccc(C(=O)Nc2ccc(Cl)cc2C(=O)NCCN2CCOCC2)cc1
    5%	6%	-5%	-0.6%	5%	3%	-1%	6%
- Cc1ccc(C)c(S(=O)(=O)NCC(c2ccc3c(c2)OCO3)N2CCOCC2)c1 (stereo not given)
    -14%	·	·	·	2%	-16%	59%[activator]	0%
- Cc1ccc2nc(-c3ccc(Cl)cc3)cc(C(=O)OCC(=O)c3ccccc3)c2c1
    16%[46.1 µM]	6%	·	0.4%	·	·	-25%	·
- Cc1ccc(NC(=O)C(C)c2cccc(C(=O)c3ccccc3)c2)cc1O (stereo not given)
    ?	2%	-35%	-10%	0%	?	?	30%
- CCOC(=O)C1=C(O)C(Nc2nc3ccccc3s2)(C(F)(F)F)N=C1C (stereo not given)
    12%	-1%	4%	0.4%	-2%	0%	5%	-11%
- CC1CN(CCOCCSc2ccccc2)CC(C)O1 (stereo not given)
    ·	·	2%	·	1%	·	-11%	-4%
- CCOC(=O)c1oc2ccccc2c1NC(=O)c1ccc(Cl)s1
    ·	11%	-6%	-7.8%	-8%	·	-16%	-19%
- CCN(CC(=O)NCc1cccs1)C(=O)/C=C/c1cc(OC)c(OC)c(OC)c1
    -5%[46.1 µM]	·	·	·	1%	12%	-12%	-1%
- COCCNC(=S)N(CCCO)Cc1cc2cc3c(cc2[nH]c1=O)OCCO3
    6%	·	19%	·	-1%	-8%	-3%	0%
- COc1cc(OC)c(NC(=O)[C@@H]2CCC(=O)N2C2OC(=O)c3c2ccc(OC)c3OC)cc1Cl (stereo not given in full)
    ·	·	-3%	·	-2%	·	-19%	-15%
- O=C(Nc1ccc(S(=O)(=O)N2CCOCC2)cc1)c1ccccc1
    ?	·	-3%	·	1%	?	-25%	-14%
- Cc1cc(C)cc(NC(=O)C(OC(=O)c2ccc([N+](=O)[O-])o2)c2ccccc2)c1 (stereo not given)
    0%	?	20%	-7.9%	-14%	-1%	13%	-6%
- Cc1cc(NC(=O)Nc2nnc(N3CCCCC3)s2)ccc1Br
    -11%[46.1 µM]	-8%	·	-3.1%	·	?	3%	·
- COc1ccccc1N1CCN(C(=S)NC(=O)/C=C/c2ccc(F)cc2)CC1
    ·	·	7%	·	1%	·	21%	-11%
- Cc1ccc(C(=O)NCC(=O)OCC(=O)c2ccc(Cl)s2)cc1
    -6%	·	·	·	2%	-7%	1%	1%
- COc1ccc(-c2ccc([C@H]3[C@H]4C=CC[C@@H](C)[C@@H]4C(=O)N3Cc3ccccc3)c(F)c2)cc1
    ·	·	?	·	-5%	·	-11%	14%
- CCOC(=O)C1=C(CP(=O)(c2ccccc2)c2ccccc2)NC(=O)NC1c1ccc(OC)cc1 (stereo not given)
    -7%	-1%	0%	-3.2%	-9%	1%	-15%	-15%

Screening results deposited in PubChem by National Center for Advancing Translational Sciences (NCATS).
